# A1 inh: inhibitors of the anti-apoptotic protein A1, read as caspase activation. MEF A1-2A-BIM cells, Caspase-Glo 3/7 luminescence, 3 h; percent of clofoctol response, vehicle zero. caspase activation, % (concentration not given with the values). hit rate 0.066% among 330,000;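 active = over half of replicate activation scores above 10%, or exactly half above 10 with the replicate mean above 10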;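 note: wells of about 30 µL received 50 nL stock; many hits fall short of the cut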
# E coli growth: inhibitors of Escherichia coli growth; hit rate 0.21% among 330,000; OD600 absorbance (test concentration not listed); AID 1053175; OD600, 23 h; hits give low values;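 active = OD600 absorbance below the run mean of sample wells minus 3.6 SD, in any replicate, cut at about 0.56 in these data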;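 note: stock transfer was 300 nL into about 60 µL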
# FGF22 binding: shifts melting point of recombinant human FGF22; hit rate 1.5% among 340,000; calls only at 9.99 µM; Q9HCT0; recombinant FGF22 thermal shift, SYPRO orange fluorescence; percent of sucrose octasulfate shift, DMSO zero; AID 651658;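 active = melting point raised past a set limit in the mean and every replicate; three in four hits are not shown here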
# Target sequence (Q9HCT0 whole entry, looked up): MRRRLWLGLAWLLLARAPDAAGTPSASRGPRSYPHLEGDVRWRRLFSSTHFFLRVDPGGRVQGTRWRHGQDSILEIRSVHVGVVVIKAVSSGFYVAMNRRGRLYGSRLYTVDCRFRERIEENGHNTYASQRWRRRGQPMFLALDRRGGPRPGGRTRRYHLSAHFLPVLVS
# UCH37 inh: human UCH37 deubiquitinating enzyme inhibition. AID 588478. Q9Y5K5. purified proteasome/UCH37, Ub-AMC cleavage fluorescence. hit rate 0.33% among 330,000. inhibition, % (concentration not given with the values);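 active = mean of two replicates above 20%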;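 note: 0% = compound-free wells with enzyme and 100% = wells lacking proteasome; stock transfer was 100 nL into about 20 µL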
# Target sequence (Q9Y5K5 whole entry, looked up): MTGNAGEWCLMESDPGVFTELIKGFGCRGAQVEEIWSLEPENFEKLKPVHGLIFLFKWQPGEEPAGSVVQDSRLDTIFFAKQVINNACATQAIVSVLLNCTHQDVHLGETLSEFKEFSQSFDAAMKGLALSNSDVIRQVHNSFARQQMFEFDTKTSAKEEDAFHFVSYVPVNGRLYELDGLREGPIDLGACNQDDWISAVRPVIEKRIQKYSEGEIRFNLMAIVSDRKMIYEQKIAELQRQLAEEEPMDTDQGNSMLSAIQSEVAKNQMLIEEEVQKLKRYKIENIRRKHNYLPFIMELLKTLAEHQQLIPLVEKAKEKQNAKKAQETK
#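 Test system – human UCH37 enzyme supplied as purified proteasome complex · Incubation – 30 min preincubation with enzyme, 25 min cleavage at room temperature · Detection – AMC fluorescence from Ub-AMC cleavage, excitation 355 nm, emission 460 nm · Benchmarks – no-proteasome wells (full inhibition) and compound-free wells (no inhibition)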
# Ecoli rRNA inh: inhibitors of bacterial rRNA selective over humanized ribosomes; E. coli WT GFP vs humanized-ribosome RFP mutants, fluorescence, 24 h; hits give low values; DMSO median 0, no signal -100; GFP signal change (wild-type ribosome), % (no concentration beside the values); hit rate 1.6% among 350,000;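 active = significant combined selectivity score with lowered wild-type GFP, culture density cut under 30%, mutant RFP and density less affected; inactive = any of these conditions unmet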; note: one replicate is shown; some compounds called inactive have numbers as strong as hits
# AF4-AF9 inh: MLL-AF4/AF9 protein interaction inhibition. AID 651704. hit rate 0.47% among 350,000. P42568. AlphaScreen, biotin-AF4 peptide binding to FLAG-AF9. inhibition, % at 10 µM;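 active = every replicate reaching a set inhibition limit, whatever the replicate mean, cut at about 25% in these data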;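 note: 0% = plate neutral control median and 100% = total signal loss; the record names both 10 and 1 µM as test concentration; the first replicate is given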
# Target sequence (P42568 whole entry, looked up): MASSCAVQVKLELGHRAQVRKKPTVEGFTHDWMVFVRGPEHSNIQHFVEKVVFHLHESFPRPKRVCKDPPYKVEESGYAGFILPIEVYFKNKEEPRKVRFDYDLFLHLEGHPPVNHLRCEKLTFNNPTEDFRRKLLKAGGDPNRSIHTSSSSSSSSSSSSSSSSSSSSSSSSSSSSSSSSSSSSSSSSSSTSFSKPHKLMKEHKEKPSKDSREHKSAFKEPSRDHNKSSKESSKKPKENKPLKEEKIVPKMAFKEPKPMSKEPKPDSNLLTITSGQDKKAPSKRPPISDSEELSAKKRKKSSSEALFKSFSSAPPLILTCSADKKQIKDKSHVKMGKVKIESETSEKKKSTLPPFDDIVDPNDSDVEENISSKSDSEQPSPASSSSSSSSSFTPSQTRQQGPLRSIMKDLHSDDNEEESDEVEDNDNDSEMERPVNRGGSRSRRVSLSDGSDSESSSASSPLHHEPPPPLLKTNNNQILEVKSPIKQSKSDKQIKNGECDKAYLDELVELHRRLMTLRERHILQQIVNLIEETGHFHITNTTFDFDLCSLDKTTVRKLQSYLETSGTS
# Beta cell apopt: blocks beta cell apoptosis; INS-1E cytokine-induced death, ATP luminescence, 48 h; percent of positive-control rescue, neutral wells zero; protection from apoptosis, % (no concentration beside the values); hit rate 0.8% among 300,000; AID 435005;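 active = all replicates at 75% or more, or half of them and the mean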;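 note: 0% = cytokine-treated negative control wells and 100% = positive control rescue; higher means more ATP so stronger rescue from cytokine killing; wells of about 40 µL received 100 nL stock; the first replicate is given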
# T cruzi repl: T. cruzi replication inhibition; T. cruzi beta-gal in NIH3T3, luminescence, 90 h; inhibition, % (concentration not given with the values); hit rate 1.4% among 300,000;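 active = mean inhibition across valid replicates above about 55%, limit read from the data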;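 note: signal also drops with host cell toxicity which is not excluded here; 0% = plate median of DMSO wells and 100% = zero luminescence signal; higher percent means less beta-gal luminescence so fewer parasites; stock transfer was 50 nL into about 50 µL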
# Ecoli rRNA inh OD600: further read-out of Ecoli rRNA inh, marked with its call; OD600 change, %; measured here: OD600 growth;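 optical density of the mix in the first replicate; 0 = DMSO median and -100 = no signal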
# Ecoli rRNA inh RFP: further read-out of Ecoli rRNA inh, marked with its call; RFP signal change, %; measured here: RFP humanized mutant strains;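 first replicate; 0 = DMSO median and -100 = no signal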
# * = called active by the depositor; i = inactive; / = not tested or not shown; & = joins results of further samples. The list is partial. The share of hits here may be higher or lower than overall.
Molecule	A1 inh	E coli growth	FGF22 binding	UCH37 inh	Ecoli rRNA inh	Ecoli rRNA inh OD600	Ecoli rRNA inh RFP	AF4-AF9 inh	Beta cell apopt	T cruzi repl
Nc1nnc(SCC(=O)Nc2nnc(-c3ccccc3)o2)s1	0.3	0.62	i	3.2	6	10	-4.4	-0.2	0	/
CCOC(=O)c1[nH]c(C)c(C(=O)OCc2ccc(C)cc2)c1C	0.3	0.72	i	1.9	6	14	0.1	1.1	5	14
N#C/C(=C\c1ccc(-c2cccc([N+](=O)[O-])c2)o1)C(=O)N1CCOCC1	-0.4	0.67	i	9.5	-12	-9	-3.1	4.5	-3	9
COCCn1c(-c2ccc(OC)cc2)cnc1N	-1.7	0.75	/	-4.4	/	/	/	/	-4	-6
CCOc1ccccc1NC(=S)Nc1ccc(S(N)(=O)=O)cc1	-0.2	0.67	i	1.6	-5	1	0.1	-0.2	0	-11
O=C(CN(C(=O)c1csnn1)c1cccc(C(F)(F)F)c1)NC1CCCC1	0.3	0.68	i	1.3	5	0	-0.2	1.3	5	-3
CCc1ccccc1NC(=O)NC1CC2CCC(C1)N2Cc1cccs1 (stereo not given)	2.2	0.71	/	5.9	/	/	/	/	/	-9
O=C(Nc1ccccc1)C1CC(=O)n2c(nc3ccccc32)N1 (stereo not given)	0.6	0.68	i	1.4	7	1	-0.7	-0.8	-5	-10

# Sorted by SMILES length (rising): three of the compounds above
Molecule	A1 inh	E coli growth	FGF22 binding	UCH37 inh	Ecoli rRNA inh	Ecoli rRNA inh OD600	Ecoli rRNA inh RFP	AF4-AF9 inh	Beta cell apopt	T cruzi repl
COCCn1c(-c2ccc(OC)cc2)cnc1N	-1.7	0.75	/	-4.4	/	/	/	/	-4	-6
Nc1nnc(SCC(=O)Nc2nnc(-c3ccccc3)o2)s1	0.3	0.62	i	3.2	6	10	-4.4	-0.2	0	/
CCOc1ccccc1NC(=S)Nc1ccc(S(N)(=O)=O)cc1	-0.2	0.67	i	1.6	-5	1	0.1	-0.2	0	-11

# Other compounds.
Molecule	A1 inh	E coli growth	FGF22 binding	UCH37 inh	Ecoli rRNA inh	Ecoli rRNA inh OD600	Ecoli rRNA inh RFP	AF4-AF9 inh	Beta cell apopt	T cruzi repl
Cc1ccc(CNC(=O)/C(C#N)=C/c2ccc(C)s2)cc1	-2.0	0.73	/	2.0	/	/	/	/	2	-4
Cc1cc(NC(=O)CSc2nc3ccccc3[nH]2)n(-c2ccccc2)n1	-0.2	0.65	i	2.9	-8	-18	-0.6	2.2	0	-5
CC(=O)NCCc1nc2ccccc2n1Cc1ccc(Cl)cc1	1.4	0.67	i	1.3	-24	-30	-4.5	0.7	-5	-2
CCS(=O)(=O)N1Cc2ccccc2CC1C(=O)Nc1cc(S(C)(=O)=O)ccc1Cl (stereo not given)	-0.1	0.66	i	3.3	2	7	0.9	0.1	-1	-6
CC(NS(=O)(=O)c1cn(C)c(=O)n(C)c1=O)c1ccccc1 (stereo not given)	1.3	0.72	/	0.0	9	9	3.4	-3.5	-2	3
CCCN1CCN(C(=O)C2CCN(S(=O)(=O)c3ccc4c(c3)oc(=O)n4C)CC2)CC1	/	0.7	i	1.9	9	14	-0.2	3.2	/	/
CC(C)=CC1C(C(=O)NCCOc2ccccc2)C1(C)C (stereo not given)	-1.0	0.67	i	2.0	-7	-18	-0.9	-1.5	-7	-7
COCCN(C(=O)c1cc(-c2ccccc2Cl)nc2ccccc12)c1c(N)n(CC(C)C)c(=O)[nH]c1=O	/	0.67	i	0.6	3	-2	-3.0	-1.0	/	/
CC(=O)Nc1ccc(S(=O)(=O)NCCC(=O)NCCCc2ccccc2)cc1	0.6	0.7	i	3.8	0	3	3.9	0.0	0	/
Cc1cc(C)n(CC(=O)NNC(=O)COc2ccc(Br)cc2F)n1	-0.8	0.72	i	3.4	11	6	1.6	0.1	-1	/
CCOC(=O)NC1(C(F)(F)F)C(=O)NC(C)=C1C#N (stereo not given)	-0.3	0.76	/	3.3	/	/	/	/	-11	-2
CCCC(=O)Nc1ccc(NC(=O)c2ccccc2)nc1	-6.0	0.68	i	0.2	12	5	-3.2	/	1	-19
Cc1c(NC(=O)CN2CC(C)OC(C)C2)c(=O)n(-c2ccccc2)n1C (stereo not given)	0.1	0.67&0.66	/	2.1&2.0	13	10	0.6	0.3	-5	/
CCCC(=O)NC(=S)Nc1nc(-c2ccc(OC)cc2)cs1	-0.1	0.74	i	-0.7	-1	1	-1.6	-50	-6	-8
CCOCCCNC(=O)C(c1ccc(Cl)cc1)N1CCN(C(=O)c2ccco2)CC1 (stereo not given)	0.5	0.72	/	0.6	/	/	/	/	2	3
CN(C(=O)CSc1nnnn1-c1ccccc1)C1CCCCC1	-0.4	0.75	/	-1.8	0	-4	-4.8	/	-3	1
O=c1oc(C2(O)CCCCC2)cc2ccc(/C=C/c3ccc(F)cc3)cc12	-0.2	/	i	-27	-12	-12	3.5	/	3	/
COc1cccc(OC)c1OCCCSc1nc(C)cc(=O)[nH]1	0.3	0.7	/	1.6	/	/	/	/	4	-7
COc1ccc2c(c1)CCc1c-2nc2ccccc2c1N1CCOCC1	0.4	0.66	i	-420	18	23	2.2	-1.1	28	23
O=C(Nc1ccc(Oc2ccccc2)nc1)C1CCCCN1Cc1cccc(O)c1 (stereo not given)	0.3	0.67	i	-1.4	-3	-2	7.1	2.7	-5	-12
O=C(CNC(=O)N1CC(=O)Nc2ccccc21)Nc1nccs1	0.3	0.67	i	2.4	-1	-1	-4.1	-20	2	-1
COC(=O)CSc1nnc2c3c4c(sc3nc(-n3nc(C)cc3C)n12)COC(C)(C)C4	1.3	0.75	/	-59	/	/	/	/	/	-1
CN(C)c1cccc(C(=O)N/N=C/c2ccccc2F)c1	-8.3	/	/	/	7	29	7.4	4.2	5	/
COc1cccc(NS(=O)(=O)c2c(C)cc(C)cc2C)c1	0.2	0.62	/	2.0	/	/	/	/	4	18
COc1ccc(NC(=O)CSc2nnnn2C)c([N+](=O)[O-])c1	-0.8	0.68	i	1.2	10	10	-1.0	-0.4	-11	-5
CCOc1ccc(NC(=O)CN(C)C(=O)c2cc([N+](=O)[O-])ccc2N2CCCCC2)cc1OCC	-0.2	0.62	i	8.2	-4	4	-0.5	5.8	/	14
N#Cc1ccc(C(=O)Nc2nnc(-c3ccccn3)o2)cc1	-5.7	0.66	i	8.8	-30	-37	-16	-0.3	2	-18
Cc1ccccc1C(=O)Nc1nnc(-c2ccco2)o1	-5.7	0.7	i	4.6	-22	-26	-6.8	1.9	-6	-21
Cc1ccccc1Cn1cc(NC(=O)c2cc3nc(-c4ccco4)cc(C(F)(F)F)n3n2)cn1	-0.4	0.73	/	-8.7	/	/	/	/	8	29
Clc1cccc(CSc2ccc(-c3ccco3)nn2)c1	-1.0	0.72	i	0.7	0	-1	0.0	-4.7	-8	12
CCCc1cc(-c2nc(N)ncc2-c2ccc3c(c2)OCCCO3)c(O)cc1OC	0.7	0.77	/	-2.3	/	/	/	/	0	58*
O=C(O)CSc1nc2ccccc2c(=O)[nH]1	0.2	0.67	/	2.8	11	5	2.5	/	-3	-22
CCOc1cc(C(=O)OCC(=O)Nc2c(C)cccc2C)ccc1OCC(=O)N1CCOCC1	-0.4	0.68	i	2.6	17	9	5.1	-2.5	-5	-6
COC(=O)[C@]1(C)N[C@H](CN(C)C(=O)Nc2ccc(OC)cc2)[C@@H]2C(=O)N(C)C(=O)[C@@H]21	0.5	0.71	i	4.9	18	18	2.6	-2.3	-7	/
Cc1c(C(=O)OC(C)C(C)C[N+](C)(C)C)oc2ccccc12 (stereo not given)	1.1	0.78	/	-0.9	/	/	/	/	3	-12
Cc1cccc(C)c1Nc1c(-c2ccc(N3CCOCC3)cc2)nc2cnccn12	0.3	0.72	i	-84	5	3	4.3	5.4	15	-4
O=C(CC1SC(=O)N(c2ccccc2)C1=O)Nc1ccc(Cl)cc1 (stereo not given)	0.1	0.65	i	3.7	1	3	6.2	-1.1	-5	-9
CCS(=O)(=O)N1CCN(Cc2ccncc2)CC1	0.3	0.69	/	2.2	/	/	/	/	-8	0
COC(=O)c1cc(NS(=O)(=O)c2ccc(N3CCCCC3)c([N+](=O)[O-])c2)cc(C(=O)OC)c1	0.0	0.73	/	3.5	/	/	/	/	/	1
O=C(COC(=O)c1ccc(=O)[nH]c1)Nc1cccc(S(=O)(=O)N2CCOCC2)c1	-0.1	0.68	i	0.5	6	4	0.0	-12	-1	-23
CCOC(=O)c1c(NC(=O)C2C3CCC(O3)C2C(=O)O)sc2c1CCC(CC)C2 (stereo not given)	0.0	0.63	i	0.9	-24	-28	-5.3	-0.6	-3	3
Cc1ccc(C2(C)NC(=O)N(CC(=O)Nc3ccccc3N3CCCC3)C2=O)cc1 (stereo not given)	-0.5	0.62	/	5.1	/	/	/	/	-3	1
CC(=O)c1c(C)[nH]c(C(=O)Nc2nc(-c3ccc(Cl)cc3)cs2)c1C	0.6	0.71	/	1.7	/	/	/	/	19	29
CC1CCCC(NC(=O)CN2CCN(S(=O)(=O)c3cccs3)CC2)C1C (stereo not given)	1.9	0.65	i	-0.4	-10	-12	0.3	-0.1	7	/
O=C1[C@H](Cc2ccccc2)NCCCC[C@@H](c2ccc(Cl)cc2)N1Cc1ccccc1	/	/	i	-2.5	-46	-74	-17	5.6	/	/
O=C(CSc1nnc(-c2cccs2)o1)NCC1CN(Cc2ccccc2)CCO1 (stereo not given)	-0.1	0.7	/	-0.1	/	/	/	/	-4	8
COC(=O)c1c(NC(=O)C(C)(C)C)sc2c1C(C(=O)OC)CC2 (stereo not given)	0.2	0.72	/	-6.0	/	/	/	/	3	-4
COc1ccc(NS(=O)(=O)c2cc(NC(=O)/C=C/c3ccccc3OC)ccc2N2CCCCC2)cc1	0.5	0.7	/	-7.3	/	/	/	/	-6	22
CC[C@@H]1C/C=C\Cc2ccccc2[C@@H](C(=O)C[C@@H](O)CC(C)=O)OC1=O	1.7	0.71	i	1.2	-1	5	3.3	-1.1	-7	/
O=C(NCc1ccccc1)c1ccc(S(=O)(=O)NCc2ccco2)cc1	-0.6	0.66	i	7.6	1	3	-1.7	-0.9	0	-11
CCOC(=O)C1CCCN(S(=O)(=O)c2cccc3nsnc23)C1 (stereo not given)	0.1	0.7	i	-0.9	2	3	-0.9	4.5	-6	9
Cc1cccc(NC(=O)CSc2nnnn2C)n1	0.7	0.73	/	-1.5	/	/	/	/	-5	2
O=C(COc1ccccc1)N/N=C/c1ccc(O[C@@H]2O[C@H](CO)[C@@H](O)[C@H](O)[C@H]2O)cc1	-0.7	/	i	/	/	/	/	3.0	2	-22
Cc1ccsc1CNn1cnnc1SCc1ccccc1F	0.2	0.66	/	0.9	/	/	/	/	1	8
CC(=O)Nc1ccc(NC(=O)CSc2nnc3ccc(-c4ccccn4)nn23)cc1	0.2	0.62	i	1.6	0	13	-1.3	-0.4	/	-1
CC(=O)Nc1ccc(/C=C/C(=O)c2ccc3c(c2)OCCO3)cc1	-0.5	0.71	i	0.4	0	6	2.0	-1.1	-6	-6

# Screening data from PubChem.
